Screens as filed in PubChem BioAssay.
Vero viability = Vero cell cytotoxicity, dose response, cytotoxicity control for Vif-APOBEC3G degradation inhibitor project, Vero cells (AID 1117358); Vero viability, CellTiter-Glo ATP luminescence, 72 h; reference of the scale not given here; viability, % at the top dose, mostly 40 µM; hits show CC50 in µM; 2,300 tested, 7% active;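 active = viability down to 80% or less at some dose; inactive = above 80% at all doses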
An asterisk follows results filed as active. An excerpt (hit frequency here may not be typical).

How did Cc1c(NC(=O)NCCN2C(=O)C3C4C=CC(C4)C3C2=O)c(=O)n(-c2ccccc2)n1C (stereo unspecified) do in these assays?
Vero viability: 94%

Results for Cc1ccc2oc(=O)c3cnn(CC(=O)NC4CCCCC4C)c3c2c1 (stereo unspecified) ?
Vero viability: 96%

Results for CCN1CCN(Cc2ccc(NC(=O)Nc3ccccc3)cc2)CC1 ?
Vero viability: 97%

Results for CC1=C(C#N)C(=O)N(C)C(C)(C)C1 ?
Vero viability: 97%

How did O=C(Nc1ccc(Cl)c(-c2nc3ccccc3[nH]2)c1)c1cccnc1 do in these assays?
Vero viability: 82%

What do the screens show for `CCOC(=O)CSc1nnc(CNC(=O)c2cccs2)n1CCc1ccccc1`?
Vero viability: 103%

Results for COc1ccc(S(=O)(=O)Cc2ccc(C(=O)NC(C)C)o2)cc1 ?
Vero viability: 100%

How did CCOc1ccc2[nH]c(=O)c(CN(Cc3nnnn3Cc3ccco3)C3CCCCC3)cc2c1 do in these assays?
Vero viability: 94%

Results for Oc1ccc2ccccc2c1C1Nc2cccc3cccc(c23)N1 ?
Vero viability: 87%

What do the screens show for `COC(=O)Nc1sc2nc(C)cc(C)c2c1-n1cccc1`?
Vero viability: 85%

How did O=C(c1cc(Cl)ccc1Cl)N1CCN(c2ccccn2)CC1 do in these assays?
Vero viability: 91%

Results for O=S(=O)(NCc1ccc2c(c1)OCO2)c1cccc(S(=O)(=O)N2CCOCC2)c1 ?
Vero viability: 93%

Results for O=C(CN1CCC(NC(=O)c2cccc(F)c2)CC1)NCc1ccccc1F ?
Vero viability: 103%

What do the screens show for `CC(C)c1ccc(-c2nc(N3CCCCCC3)nc3n[nH]c(N)c23)cc1`?
Vero viability: 90%

Results for COc1ccc(C2=NOC(C(=O)NCc3cccs3)C2)cc1OC (stereo unspecified) ?
Vero viability: >40µM*

What do the screens show for `COc1ccc(N=C2S/C(=C\c3ccc(C)o3)C(=O)N2CC(C)C)cc1`?
Vero viability: 97%

What do the screens show for `Cc1c(Cl)cccc1NC(=O)CSc1nnc(C)n1-c1ccccc1`?
Vero viability: 98%

Results for Cc1ccc(NS(=O)(=O)c2ccc(OCC(=O)Nc3cccc([N+](=O)[O-])c3)c(C)c2)cc1 ?
Vero viability: >40µM*

How did Cc1ccn2cc(-c3nonc3C)cc2c1 do in these assays?
Vero viability: 109%

How did O=c1c2c(-c3ccco3)csc2nc(SCc2cn3cccnc3n2)n1-c1ccccc1 do in these assays?
Vero viability: >40µM*

How did Cc1ccc(Nc2nc3ccccc3nc2-n2nc(C)cc2C)cc1 do in these assays?
Vero viability: 103%

What do the screens show for `O=C(NNC(=O)c1ccccc1-n1cccc1)c1ccc(Cl)c(Cl)c1`?
Vero viability: >40µM*

What do the screens show for `CCc1[nH]nc2c1C1(CCN(C(=O)OCc3ccccc3)CC1)C(C#N)=C(N)O2`?
Vero viability: 109%

Results for CSc1nnc(-c2ccco2)c(-c2ccco2)n1 ?
Vero viability: 106%

What do the screens show for `O=C(C1CC(c2ccccc2O)=NO1)N1CCCCC1` (stereo unspecified)?
Vero viability: 91%

What do the screens show for `CCc1nnc(NC(=O)CSc2nnc(Cc3ccccc3)n2-c2ccc(OC)cc2)s1`?
Vero viability: 101%

Results for COc1ccc(Cl)c(NCCC(=O)O)c1 ?
Vero viability: 97%

What do the screens show for `Cc1cc(NC(=O)CSc2nnc(-c3ccncc3)n2N)ccc1Br`?
Vero viability: 103%

What do the screens show for `COc1ccc(N2CCN(C(=O)c3c(-c4ccccc4)noc3C)CC2)cc1`?
Vero viability: 103%

Results for O=C(CSc1nnc(C2CCCCC2)n1Cc1ccccc1)NCc1ccco1 ?
Vero viability: 109%

How did CCCCC(=O)Nc1ccc(NC(=O)c2ccc3c(c2)OCO3)cc1OC do in these assays?
Vero viability: 95%

What do the screens show for `Cc1c(C(=O)Nc2cccc([N+](=O)[O-])c2)csc1-c1ccccc1`?
Vero viability: 85%

Results for COc1ccc(S(=O)(=O)NCCSCc2ccco2)cc1Cl ?
Vero viability: 94%

How did CCOc1ccccc1CNC(=O)Cn1c(=O)oc2ccccc21 do in these assays?
Vero viability: 100%

What do the screens show for `COc1ccccc1NC(=O)c1cc2ccccc2o/c1=N\O`?
Vero viability: 94%

What do the screens show for `C=CCc1ccc(OCCCCN2CC(C)OC(C)C2)c(OC)c1` (stereo unspecified)?
Vero viability: 88%

How did Cc1onc(-c2ccccc2)c1C(=O)NCc1cccs1 do in these assays?
Vero viability: 106%

What do the screens show for `CC(Sc1nnnn1C)C(=O)Nc1ccccc1-c1ccccc1` (stereo unspecified)?
Vero viability: 95%

What do the screens show for `CN(C)NC1CCS(=O)(=O)C1` (stereo unspecified)?
Vero viability: 100%

Results for CCCCC(=O)NCCNC(=O)c1cc(OCC(F)(F)F)ccc1OCC(F)(F)F ?
Vero viability: 100%

How did CCOC(=O)c1c(NC(=O)CSc2nncs2)sc(C)c1C do in these assays?
Vero viability: 95%

What do the screens show for `CCCN(C(=S)Nc1ccccc1)C1CCS(=O)(=O)C1` (stereo unspecified)?
Vero viability: 91%

Results for COC(=O)c1c[nH]n2c(=O)c(Cc3ccc(F)cc3Cl)c(C)nc12 ?
Vero viability: 88%

What do the screens show for `CC1CCN(C(=O)C2c3ccccc3C(=O)N3CCc4ccccc4C23)CC1` (stereo unspecified)?
Vero viability: 90%

What do the screens show for `O=C(O)CCCC(=O)NCCc1cccc(Cl)c1`?
Vero viability: 92%

How did CCOC(=O)N1CCN(C(=O)C2CCCN(S(=O)(=O)c3ccc(C)cc3)C2)CC1 (stereo unspecified) do in these assays?
Vero viability: 101%

What do the screens show for `CS(=O)(=O)N(CC(=O)N1CCN(Cc2ccccc2)CC1)c1ccc2c(c1)OCCO2`?
Vero viability: 93%

What do the screens show for `Cc1ccc(CNc2ccc(O)cc2)cc1`?
Vero viability: 95%

How did COc1ccc(NC(=O)CN(C)S(=O)(=O)c2ccc3c(c2)CCC(=O)N3)c(OC)c1 do in these assays?
Vero viability: 93%

What do the screens show for `CCOC(=O)C1CCN(C(=O)COc2ccc(S(=O)(=O)NC(C)C)cc2)CC1`?
Vero viability: 89%

How did O=C(Nc1ccc2c(c1)OCO2)c1cccc(S(=O)(=O)N2CCCC2)c1 do in these assays?
Vero viability: 95%

What do the screens show for `Oc1ccc(/C=N/NC2=NCCCCC2)c(O)c1`?
Vero viability: 101%

How did CC1(C)OC(=O)C(=C2CCCN2)C(=O)O1 do in these assays?
Vero viability: 101%

How did CC(=NC1CCCC1)c1c(C)[nH]n(-c2nc3ccccc3s2)c1=O do in these assays?
Vero viability: 84%

What do the screens show for `Cc1cc(C)n(-c2ncc(-c3ccccc3)nn2)n1`?
Vero viability: 101%

What do the screens show for `Cc1oc(C)c2c(=O)ccc3c(c12)OC(N)=C(C#N)C3c1ccccc1` (stereo unspecified)?
Vero viability: 99%

How did CCOc1ccccc1C(=O)NCC(=O)OCC(=O)NCCc1ccc(S(N)(=O)=O)cc1 do in these assays?
Vero viability: 91%

How did CCNC(=O)NC(=O)COC(=O)CNC(=O)COc1ccccc1 do in these assays?
Vero viability: 105%

How did COc1ccccc1-n1nnnc1SCC(=O)Nc1cc(C)on1 do in these assays?
Vero viability: 95%

Results for O=C(NCc1cccs1)c1ccc2c(c1)ncn2C1CCCC1 ?
Vero viability: 100%

Results for CCOCCCNC(=O)c1ccccc1Br ?
Vero viability: 95%

What do the screens show for `O=C(NCc1ccc2c(c1)OCO2)C1CCCN1C(=O)Nc1ccccc1` (stereo unspecified)?
Vero viability: 95%

Results for CSCCC(NS(=O)(=O)c1ccc2c(c1)oc(=O)n2C)C(=O)NC1CCCc2ccccc21 (stereo unspecified) ?
Vero viability: 92%

What do the screens show for `CCOc1cccc(CNCCNC(=O)c2nonc2N)c1`?
Vero viability: 95%

How did O=C1C2C3CCCC3=C3CCCC3C2C(=O)N1c1ccccc1 (stereo unspecified) do in these assays?
Vero viability: 88%

Results for COc1ccccc1NC(=O)CSc1nnc(Cc2cc(=O)[nH]c(=O)[nH]2)n1-c1ccccc1 ?
Vero viability: 101%

How did CCOC(=O)C1=C(CSc2nc(C)ccc2C#N)OC(N)=C(C#N)C1c1cccc(OC)c1OC (stereo unspecified) do in these assays?
Vero viability: 96%

What do the screens show for `CCOC(=O)N1CCN(C(=O)c2cc3c(s2)-c2ccccc2OC3)CC1`?
Vero viability: 100%

How did Cc1ccc(-n2nnnc2SCc2ccccn2)cc1C do in these assays?
Vero viability: 104%

What do the screens show for `COc1ccc(CCNC(=O)Cn2nnc(-c3cccc(OC)c3OC)n2)cc1OC`?
Vero viability: 90%

How did Oc1ccc2c(c1)C1CCCC1(N1CCOCC1)O2 (stereo unspecified) do in these assays?
Vero viability: 92%

What do the screens show for `CCn1c(=O)cc(N2CCC3(CC2)OCCO3)[nH]c1=O`?
Vero viability: 94%

How did Cc1cc(C)cc(NC(=S)NC(=O)CCN2C(=O)c3ccccc3C2=O)c1 do in these assays?
Vero viability: 100%

How did Cc1nn(-c2ccccc2)c(C)c1/C=N/NC(=O)c1cc(-c2ccccc2)n[nH]1 do in these assays?
Vero viability: 8.8µM*

How did CC(C)Cn1c(SCC(=O)NC(=O)Nc2ccc3c(c2)OCCO3)nc2ccccc2c1=O do in these assays?
Vero viability: 97%

Results for COc1cccc(CC(=O)Nc2nccs2)c1 ?
Vero viability: 96%

Results for Cc1cc(C)c(C)c(S(=O)(=O)N2C(=S)NC(=O)C2C(C)C)c1C (stereo unspecified) ?
Vero viability: 86%

What do the screens show for `COc1ccccc1NCCC(=O)OCC(=O)NCc1ccco1`?
Vero viability: 91%

How did CCCCNC(=O)Oc1cccc(N2CCCC2=O)c1 do in these assays?
Vero viability: 99%

What do the screens show for `O=C(CSc1nnc2n(C3CCCCC3)c(=O)c3ccccc3n12)OC1CCCCC1`?
Vero viability: 92%

How did CC1C/C(=N/N2C(=O)CSC2=S)CC(C)(C)C1 (stereo unspecified) do in these assays?
Vero viability: 101%

How did Cc1c(-c2ccccc2)nc2ccccc2c1C(=O)O do in these assays?
Vero viability: 95%

How did O=C(NCc1ccccc1Cl)c1csc2c1CCCCC2 do in these assays?
Vero viability: 105%

Results for Cc1[nH]c2ccccc2c1C(=O)Cn1c(=O)oc2ccccc21 ?
Vero viability: 95%

Results for COc1ccc(C(C)NC(=O)C2C(=O)NC3(C)CC2c2ccccc2O3)cc1 (stereo unspecified) ?
Vero viability: 105%

Results for O=C(CSc1nnnn1-c1ccccc1)Nc1nsc(-c2ccccc2)n1 ?
Vero viability: 104%

What do the screens show for `Clc1ccc(C2=Nn3c(nnc3-c3cc(-c4ccccc4)n[nH]3)SC2)cc1`?
Vero viability: 101%

What do the screens show for `O=C1CCCC2=C1C(c1cccs1)n1ncnc1N2` (stereo unspecified)?
Vero viability: 100%

How did Cc1ccc(-n2c(Cc3cccn3C)nnc2SCC(=O)Nc2nnc(C)s2)cc1 do in these assays?
Vero viability: 101%

How did CCn1c(COc2ccc(=O)n(-c3ccccc3)n2)nnc1SCc1ccc(C)cc1 do in these assays?
Vero viability: 101%

Results for Cc1ccccc1CS(=O)(=O)CCC(=O)NCCN1CCN(c2cccc(Cl)c2)CC1 ?
Vero viability: 90%

Results for O=C(CN(C1CCCCC1)C1CCCCC1)N1CCc2ccccc2C1 ?
Vero viability: 84%

Results for CN1CCN(C(=O)CSc2nc(-c3cccs3)ccc2C#N)CC1 ?
Vero viability: 105%

How did O=S(=O)(NCc1cn2ccsc2n1)c1cccs1 do in these assays?
Vero viability: 98%

What do the screens show for `CN1CCc2c(sc3c2c(NCc2ccco2)nc2nnnn23)C1`?
Vero viability: 91%

Results for CC1=C(C(=O)Nc2ccccc2F)C(c2ccsc2)C2=C(CC(c3ccccc3)CC2=O)N1 (stereo unspecified) ?
Vero viability: 101%

What do the screens show for `CC1=CC(C)C2C(=O)N(CCCN(C)C)C(=O)C2C1` (stereo unspecified)?
Vero viability: 91%

What do the screens show for `O=C(NCCc1ccccc1)c1ccc2c(c1)N(Cc1ccccc1)C(=O)CS2=O` (stereo unspecified)?
Vero viability: 99%

Results for Cc1ccc(CSc2nnc(-c3ccco3)o2)cc1 ?
Vero viability: 96%

Results for O=C1[C@@H]2CSCN2C(=O)CN1CCc1cccc(F)c1 ?
Vero viability: 99%

What do the screens show for `COCCN1Cc2cccc(C(=O)NCc3ccccn3)c2C1=O`?
Vero viability: 99%

How did Cc1ccc(/C=C/C(=O)Nc2ncc(C)s2)o1 do in these assays?
Vero viability: 99%

What do the screens show for `O=C(O)c1cc(-c2ccc(N3CCOCC3)cc2)nn1-c1ccc(F)cc1F`?
Vero viability: 99%

Filtered by structure: the entries above containing two or more sulfur atoms
What do the screens show for `CCOC(=O)CSc1nnc(CNC(=O)c2cccs2)n1CCc1ccccc1`?
Vero viability: 103%

Results for O=S(=O)(NCc1ccc2c(c1)OCO2)c1cccc(S(=O)(=O)N2CCOCC2)c1 ?
Vero viability: 93%

How did O=c1c2c(-c3ccco3)csc2nc(SCc2cn3cccnc3n2)n1-c1ccccc1 do in these assays?
Vero viability: >40µM*

What do the screens show for `CCc1nnc(NC(=O)CSc2nnc(Cc3ccccc3)n2-c2ccc(OC)cc2)s1`?
Vero viability: 101%

Results for COc1ccc(S(=O)(=O)NCCSCc2ccco2)cc1Cl ?
Vero viability: 94%

How did CCOC(=O)c1c(NC(=O)CSc2nncs2)sc(C)c1C do in these assays?
Vero viability: 95%

What do the screens show for `CCCN(C(=S)Nc1ccccc1)C1CCS(=O)(=O)C1` (stereo unspecified)?
Vero viability: 91%

Results for CSCCC(NS(=O)(=O)c1ccc2c(c1)oc(=O)n2C)C(=O)NC1CCCc2ccccc21 (stereo unspecified) ?
Vero viability: 92%

Results for Cc1cc(C)c(C)c(S(=O)(=O)N2C(=S)NC(=O)C2C(C)C)c1C (stereo unspecified) ?
Vero viability: 86%

How did CC1C/C(=N/N2C(=O)CSC2=S)CC(C)(C)C1 (stereo unspecified) do in these assays?
Vero viability: 101%

Results for O=C(CSc1nnnn1-c1ccccc1)Nc1nsc(-c2ccccc2)n1 ?
Vero viability: 104%

How did Cc1ccc(-n2c(Cc3cccn3C)nnc2SCC(=O)Nc2nnc(C)s2)cc1 do in these assays?
Vero viability: 101%

Results for CN1CCN(C(=O)CSc2nc(-c3cccs3)ccc2C#N)CC1 ?
Vero viability: 105%

How did O=S(=O)(NCc1cn2ccsc2n1)c1cccs1 do in these assays?
Vero viability: 98%
